Compound activity: PubChem BioAssay, ICCB-Longwood Screening Facility, Harvard Medical School
Polio RdRp inh: poliovirus RdRp elongation inhibitors, primary screen, biochemical, fluorescence polarization, total intensity; AID 588519, 2011; Genome polyprotein (Poliovirus type 1 (strain Mahoney)), P03300; poliovirus polymerase elongation; stronger effect = lower value; actives 0.66% (n = 150,000); % elongation, % (compound at 16.7 µg/mL); in the data active = % elongation below about 90%; note: some results filed as inactive read as strong as hits
Target sequence (P03300 1749-2209 limits assumed): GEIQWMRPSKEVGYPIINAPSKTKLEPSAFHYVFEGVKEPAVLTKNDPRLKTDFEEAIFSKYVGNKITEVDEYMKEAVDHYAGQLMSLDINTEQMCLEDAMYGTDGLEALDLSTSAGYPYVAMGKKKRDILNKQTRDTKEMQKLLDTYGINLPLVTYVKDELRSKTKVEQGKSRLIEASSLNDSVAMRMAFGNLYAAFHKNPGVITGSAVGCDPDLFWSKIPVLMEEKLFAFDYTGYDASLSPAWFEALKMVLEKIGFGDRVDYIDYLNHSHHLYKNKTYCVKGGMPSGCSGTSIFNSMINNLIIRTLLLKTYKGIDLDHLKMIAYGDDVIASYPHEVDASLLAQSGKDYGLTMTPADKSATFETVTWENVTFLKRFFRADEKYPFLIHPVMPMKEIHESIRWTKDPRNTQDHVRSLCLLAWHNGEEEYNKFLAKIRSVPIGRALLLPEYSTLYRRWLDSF
Polio RdRp inh intensity: also measured in Polio RdRp inh; calls as there; % elongation; measured here: total intensity read-out; formula for this scale not given here;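 total fluorescence in place of polarization; lower means less elongation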
The depositor's hits bear a star.

Every second line gives: Polio RdRp inh | Polio RdRp inh intensity
- CC(C)c1ccc(CNc2n[nH]c(-c3ccco3)n2)cc1
  109 | 111
- Cc1cccc(Cn2cccc(C(=O)Nc3ccc4c(c3)OCCO4)c2=O)c1
  107 | 106
- CCN(CCCNC(=O)CSc1cc(=O)n(CC)c2ccccc12)c1cccc(C)c1
  104 | 104
- O=C(Nc1nc2c(Cl)cccc2s1)c1ccc(S(=O)(=O)N2CCc3ccccc32)cc1
  104 | 108
- COC(=O)c1cc(-c2ccc(C)cc2)c2c(=O)n(C)c(=O)n(C)c2n1
  107 | 104
- Cc1c(CC(=O)N2CCCCC2)c(=O)oc2c(C)c3occ(C(C)(C)C)c3cc12
  105 | 105
- COc1ccc(N2CCN(S(=O)(=O)c3ccc(F)c(C(=O)Nc4ccccc4Cl)c3)CC2)cc1
  109 | 107
- COc1ccc(Nc2ncnc3c2nc2n3CCCCC2)cc1
  113 | 107
- O=C(OCC1CCCO1)c1ccc2c(c1)N(Cc1ccc(F)cc1)C(=O)c1ccccc1S2(=O)=O (stereo unspecified)
  107 | 112
- Fc1ccc(-c2csc(-c3nc(-c4ccc(Br)s4)cs3)n2)cc1
  108 | 111
- CCc1cccc(C)c1NC(=O)CCS(=O)(=O)c1ccc2c(c1)oc(=O)n2C
  101 | 99
- COc1ccccc1CNc1ncnc2c1cnn2-c1ccc(C)cc1
  105 | 112
- COc1ccc(S(=O)(=O)NCc2ccc3c(c2)CCN3C(=O)c2ccccc2)cc1OC
  106 | 108
- CC(=O)N1CCCc2cc(S(=O)(=O)N3CCCC(C(=O)Nc4cccc(Cl)c4C)C3)ccc21 (stereo unspecified)
  108 | 112
- CCn1cc(C(=O)OCC(=O)Nc2cc(Cl)ccc2OC)c(=O)c2ccc(C)nc21
  108 | 112
- CCOc1ccc(C2c3[nH]c4ccccc4c3CCN2C(=O)Cc2cccc(OCC)c2OCC)cc1 (stereo unspecified)
  106 | 107
- CC(C)c1ccc2oc(-c3ccc(Cl)c(NC(=O)c4cccs4)c3)nc2c1
  104 | 105
- CCCCNC(=O)c1nn(-c2ccc(C)cc2)c(=O)n(C)c1=O
  105 | 111
- O=C(CN1CCN(Cc2ccccc2Cl)C1=O)NCc1ccccc1Cl
  115 | 112
- Cc1cc(C)c2c(=O)c3c(oc2c1)C(=O)N(CCCOC(C)C)C3c1ccccc1F (stereo unspecified)
  102 | 109

Compound profiles, from the list above.
COc1ccc(S(=O)(=O)NCc2ccc3c(c2)CCN3C(=O)c2ccccc2)cc1OC as listed: Polio RdRp inh = 106; Polio RdRp inh intensity = 108
CC(C)c1ccc2oc(-c3ccc(Cl)c(NC(=O)c4cccs4)c3)nc2c1 as listed: Polio RdRp inh = 104; Polio RdRp inh intensity = 105

Next part:
Every second line gives: Polio RdRp inh | Polio RdRp inh intensity
- CCCCN(CC)C(=O)c1c[nH]c2ccc(S(=O)(=O)Nc3cccc(OC)c3)cc2c1=O
  100 | 104
- CCOc1ccc(Nc2c(S(=O)(=O)c3ccc(C)cc3)cnc3ccccc23)cc1
  105 | 108
- Cc1c(C(=O)N2CCCC2)oc2c1-c1nn(CC(=O)NCCCOC(C)C)cc1CC2
  47* | 55*
- Cc1nn(-c2ccccc2)c2c1cc1c(=O)[nH]c(=O)nc-1n2-c1cccc(Cl)c1
  107 | 109
- CCCS(=O)(=O)Nc1cc2c(cc1NCc1ccccc1)n(C)c(=O)n2C
  102 | 114
- COCCCNC(=O)CSC1=Nc2ccccc2C2=NC(CCC(=O)NCc3ccccc3OC)C(=O)N12 (stereo unspecified)
  103 | 103
- CCc1ccc(NC(=O)CSc2nc3ncccc3[nH]2)cc1
  112 | 104
- COc1ccc(NC(=O)CSc2nnc(N)s2)cc1
  108 | 113
- CCOC(=O)c1c(NC(=O)CSc2nc(-c3ccccc3)cc(C(F)(F)F)n2)sc(C)c1C
  96 | 100
- O=C(CCC1N=C2c3ccccc3N=C(SCC(=O)Nc3ccccc3F)N2C1=O)NCc1ccccc1 (stereo unspecified)
  115 | 116
- COc1cc(OC)cc(-c2cc3nc(C)c(CCC(=O)Nc4ccc(C(C)=O)cc4)c(C)n3n2)c1
  109 | 110
- CN(C)CCNC(=O)c1ccc(Cn2c(=O)c3cccn3c3cccnc32)cc1
  105 | 105
- CCCCn1cc(S(=O)(=O)c2ccc(C)c(C)c2)c(=O)c2cc(F)c(N3CCCC(C)C3)cc21 (stereo unspecified)
  105 | 112
- O=C(CCCn1c(=O)c2cccn2c2ccc(F)cc21)NCCc1ccccc1
  104 | 105
- COc1ccc(Br)cc1S(=O)(=O)Nc1cc(-c2cn3ccccc3n2)ccc1C
  102 | 106
- COc1ccc(CNC(=O)c2cnn(-c3ccc(C)cc3)c2-n2cccc2)cc1OC
  102 | 111
- Cc1ccc(-c2nnc(Nc3ccccc3)c3ccccc23)cc1S(=O)(=O)NCc1nc2ccccc2[nH]1
  113 | 121
- O=C(c1cnn(-c2ccc(F)cc2)c1-n1cccc1)N1CCN(c2ccccc2)CC1
  105 | 104
- Nc1c(C(=O)Nc2ccc(Cl)cc2F)sc2nc(-c3cccs3)ccc12
  118 | 146
- Cc1ccc2oc(-c3cccc(NC(=O)c4sc5c([N+](=O)[O-])cccc5c4Cl)c3)nc2c1
  105 | 108
- Cc1ccc(NC(=O)c2sc3ccccc3c2Cl)cc1
  101 | 105
- CCc1cccc(C)c1NC(=O)CCCn1c(C)c2cnn(-c3ccccc3)c(=O)c2c1C
  102 | 104
- O=C(Cn1c(=O)n(-c2cccc(Cl)c2)c(=O)c2sc3ccccc3c21)NC1CCCCC1
  105 | 104
- Cc1ccc2nc(COc3ccccc3NC(=O)c3ccc(F)cc3)cc(=O)n2c1
  102 | 105
- CCCCOc1ccc(C(=O)N2CCC(c3nc4ccccc4o3)CC2)cc1
  109 | 106
- COC(=O)c1ccc(NC(=O)CSc2nccn2Cc2ccc(Cl)cc2)cc1
  107 | 109
- COc1ccc(NC(=O)C2CCN(C3=NS(=O)(=O)C(c4ccc(C)c(C)c4)=C3C)CC2)cc1OC
  115 | 116
- CCOC(=O)c1c(NC(=O)COc2cccc(C(F)(F)F)c2)sc2c1CCC(C)C2 (stereo unspecified)
  90 | 93
- Cn1cccc1-c1cc2n(n1)CCC(=O)N2CCCC(=O)NCc1cccc(Cl)c1
  108 | 110
- COc1cccc(C(=O)Nc2ccccc2C(=O)OCc2cc(=O)n3nc(C)sc3n2)c1
  106 | 103
- COc1ccc(N(CC(=O)NCc2ccc(F)cc2)S(=O)(=O)c2c(C)noc2C)cc1
  107 | 112
- CCOc1ccc(-c2n[nH]c3c2C(c2cccs2)N(c2ccc(Br)cc2)C3=O)cc1 (stereo unspecified)
  108 | 112
- COc1ccc(CCNC(=O)c2cc(-c3ccc(C)c(C)c3)nc3ccccc23)cc1OC
  119 | 114
- COc1ccc(-c2cn3cccnc3n2)cc1NC(=O)Nc1cc(C)ccc1C
  98 | 97
- CCc1ccc(NC(=O)Cn2ncc3c4ccccc4n(C)c3c2=O)cc1
  112 | 111
- COc1cccc(-n2ccnc2SCC(=O)Nc2c(C)cc(C)cc2C)c1
  105 | 103
- Cc1cc(Br)ccc1NC(=O)c1coc(=O)c2ccccc12
  101 | 104
- COc1ccccc1C1C(C(=O)N2CCCCC2)=C(C)Nc2nc3ccccc3n21 (stereo unspecified)
  106 | 107
- CCc1ccc(NC(=O)Cn2cnc3sc(C)c(S(=O)(=O)N4CCC(C)CC4)c3c2=O)cc1
  101 | 102
- CC(C)c1ccc(S(=O)(=O)Nc2cc3c(cc2NCc2ccccc2)n(C)c(=O)n3C)cc1
  108 | 111
- Cc1cccc(C2=Nc3ccccc3N=C(c3cc(Cl)ccc3O)C2)c1
  101 | 97
- Cc1cc(Nc2ccc(Br)c(C)c2)n2nc(-c3ccco3)nc2n1
  110 | 113
- COc1cccc(CNC(=O)c2ccc(NC(=O)N3CCCCc4ccccc43)cc2)c1OC
  110 | 106
- Cc1cccc(NC(=O)CSc2nc3ccc(NC(=O)COc4ccc(Cl)cc4)cc3s2)c1
  103 | 106
- Cc1ccc(CNC(=O)Cn2ccn(-c3cc(C)cc(C)c3)c(=O)c2=O)cc1
  109 | 114
- CC(C)(C)OC(=O)N1CCC(c2c(C(=O)NCCN3CCc4ccccc4C3)cnn2-c2ccc(F)cc2F)CC1
  101 | 105
- CCc1ccccc1NS(=O)(=O)c1ccc2oc(=O)c3ncn(C)c3c2c1
  105 | 102
- Cc1ccc(C(=O)O)cc1-n1c(C)ccc1-c1ccccc1
  102 | 100
- COc1cc(-c2nnc(SCCOc3ccc(Cl)cc3)o2)cc(OC)c1OC
  108 | 108
- Cc1ccc(C)c(NC(=O)Cn2c(=O)nc(-c3ccccc3)c3ccccc32)c1
  109 | 102
- CCOC(=O)c1cc(S(=O)(=O)NCc2cccc(Cl)c2)[nH]n1
  102 | 106
- O=C(c1ccccc1Cl)N1CCCCC1CCN1CCCCC1 (stereo unspecified)
  108 | 98
- Cc1ccc(-n2ncc(C(=O)NCc3ccco3)c2C2CCN(C(=O)OC(C)(C)C)CC2)cc1C
  100 | 99
- Cc1ccccc1NC(=O)Cn1c(=O)n(Cc2ccccc2)c(=O)c2sc3ccccc3c21
  105 | 107
- CCOC(=O)c1cc(NC(=O)c2ccc(Cl)cc2)c(=O)n2c1oc1ccccc12
  102 | 108
- Cc1cccc(NC(c2ccccc2C)c2ccc3ccc(C)nc3c2O)n1 (stereo unspecified)
  107 | 110
- Clc1cccc(CSc2nncn3c2cc2sccc23)c1
  113 | 108
- COc1ccc(CNC(=O)CCn2nc(C)c3c(C)n(-c4ccccc4)nc3c2=O)c(OC)c1
  103 | 112
- CCc1nnc(NC(=O)CSc2nccn2Cc2ccccc2)s1
  103 | 110
- COc1ccccc1-c1ccnc2[nH]n(-c3ccccc3)c(=O)c12
  104 | 105

The list continues:
Every second line gives: Polio RdRp inh | Polio RdRp inh intensity
- COc1ccc2c(c1)cc1c(=O)n(CC(=O)NC(C)CCc3ccccc3)nc(C)n12 (stereo unspecified)
  110 | 104
- O=C(NCCS(=O)(=O)N1CCN(c2ccc(F)cc2)CC1)c1cc(=O)c2ccccc2o1
  109 | 111
- O=C(CC1N=C2c3ccccc3N=C(SCc3cccc(F)c3)N2C1=O)NCc1cccs1 (stereo unspecified)
  103 | 106
- CCOC(=O)c1ccc(NC(=O)Cn2nc(C)c3nn(-c4ccc(Cl)cc4)c(C)c3c2=O)cc1
  110 | 118
- CCCn1c(=N)c(C(=O)NCc2ccco2)cc2c(=O)n3cc(C)ccc3nc21
  115 | 115
- COc1cccc(NC(=O)c2ccc3c(=O)n4nc(Nc5ccccc5OC)sc4nc3c2)c1
  106 | 103
- Cc1ccc(-c2noc(-c3nnn(CC(=O)Nc4ccc(C)cc4Cl)c3N)n2)cc1
  108 | 106
- CCn1c(=O)cc(OCC(=O)N2CCN(c3ccc(OC)cc3)CC2)c2ccccc21
  103 | 104
- CC(C)(C)c1ccc(OCC(=O)Nc2c(C(=O)c3ccc(F)cc3)oc3ccccc23)cc1
  109 | 114
- O=c1c2ccccc2n2c(-c3ccc(F)c(F)c3)nnc2n1CCc1ccccc1
  105 | 111
- O=C(Cn1c(=O)oc2ccccc21)NCc1ccccc1Cl
  102 | 106
- Cc1nn(CC(=O)Nc2ccccc2C(F)(F)F)c(=O)c2cccn12
  111 | 121
- CCOC(=O)c1scc(-c2ccccc2)c1S(=O)(=O)N1CCN(c2ccccc2OC)CC1
  111 | 111
- Cc1ccc(S(=O)(=O)c2nc(-c3ccccc3)oc2N2CCCCCC2)cc1
  104 | 107
- Cc1cccc(NC(=O)CSc2nc(=O)n(Cc3ccncc3)c3c2CCC3)c1C
  108 | 108
- CCC(C)n1c(=O)c2sccc2n2c(CCCC(=O)NCc3ccccc3Cl)nnc12 (stereo unspecified)
  118 | 124
- COc1ccc(CCNC(=O)CS(=O)Cc2nc(-c3ccc(C)cc3)oc2C)cc1OC (stereo unspecified)
  109 | 112
- Cn1ccc2cc(S(=O)(=O)N3CCN(C(=O)Nc4ccc(F)cc4F)CC3)ccc21
  101 | 104

Compounds from the list above that contain two or more sulfur atoms (11):
Every second line gives: Polio RdRp inh | Polio RdRp inh intensity
- O=C(Nc1nc2c(Cl)cccc2s1)c1ccc(S(=O)(=O)N2CCc3ccccc32)cc1
  104 | 108
- Fc1ccc(-c2csc(-c3nc(-c4ccc(Br)s4)cs3)n2)cc1
  108 | 111
- COc1ccc(NC(=O)CSc2nnc(N)s2)cc1
  108 | 113
- CCOC(=O)c1c(NC(=O)CSc2nc(-c3ccccc3)cc(C(F)(F)F)n2)sc(C)c1C
  96 | 100
- Nc1c(C(=O)Nc2ccc(Cl)cc2F)sc2nc(-c3cccs3)ccc12
  118 | 146
- CCc1ccc(NC(=O)Cn2cnc3sc(C)c(S(=O)(=O)N4CCC(C)CC4)c3c2=O)cc1
  101 | 102
- Cc1cccc(NC(=O)CSc2nc3ccc(NC(=O)COc4ccc(Cl)cc4)cc3s2)c1
  103 | 106
- Clc1cccc(CSc2nncn3c2cc2sccc23)c1
  113 | 108
- CCc1nnc(NC(=O)CSc2nccn2Cc2ccccc2)s1
  103 | 110
- O=C(CC1N=C2c3ccccc3N=C(SCc3cccc(F)c3)N2C1=O)NCc1cccs1 (stereo unspecified)
  103 | 106
- CCOC(=O)c1scc(-c2ccccc2)c1S(=O)(=O)N1CCN(c2ccccc2OC)CC1
  111 | 111

A portion of the library. The share of hits here may be higher or lower than overall.
